Bioassay records from PubChem BioAssay.
HCMV UL50-53 inh: disrupts HCMV UL50-UL53 complex binding; HTRF UL50-UL53 interaction, normalized percent inhibition; 190,000 tested, 0.15% active; inhibition, % (no concentration beside the values);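 active means both replicates at 50% or more, plus weaker picks with an unusually low signal ratio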;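 further: stock transfer was 100 nL into about 20 µL; 0% = negative control wells and 100% = wells with untagged competitor protein; inactives centre near -12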
Numbers without * were called inactive; & = joins results of further samples.

SMILES | HCMV UL50-53 inh
NC(=O)C1CCN(C(=O)c2cc3cc(Br)ccc3oc2=O)CC1 | -16
CC1(C(=O)O)CCC2C(Br)=CC21C (configuration not stated) | -12
C=C1C(c2ccc(C)cc2)=CCc2cc(C)cc(C)c21 | -9
CC1(C)S[C@@H]2[C@H](NC(=O)[C@H](N)c3ccccc3)C(=O)N2[C@H]1C(=O)OC1OC(=O)c2ccccc21 (some centres not stated) | -17
COc1ccc(/C=C/C(=O)Nc2sc3c(c2C(=O)O)CCCC3)cc1 | 1
Cc1cccc(NC(=O)c2sc3nc(-c4ccccc4)cn3c2C)n1 | -6
S=c1[nH]cnc2scc(-c3ccccc3)c12 | -7
N#C/C(=C1\Nc2ccccc2S1)c1sc2ccccc2c1Cl | -16
CCOc1ccc2c(c1)nc1n2C(=O)CC(c2ccccc2)S1 (configuration not stated) | 1
Clc1cccc(Oc2cnc3ccccc3n2)c1 | 2
O=S(=O)(Nc1ccccc1)N1CCCCC1 | -5
N[C@@H](CSCCB(O)O)C(=O)O | -25&-25
O=C(CC(C(=O)O)N1CCCCC1)Nc1ccccc1 (configuration not stated) | -2
O=C(Oc1ccc(Cl)c2cccnc12)c1ccc(F)cc1 | -10
NNc1nc2c(Cl)cc(Cl)cc2s1 | -2
COc1ccc(S(=O)(=O)N2CCc3ccccc3C2)cc1C(=O)O | -11
Cc1ccc2cc(N=Cc3ccc(O)cc3)ccc2n1 | -8
O=[N+]([O-])c1cc(Cl)ccc1S(=O)(=O)N1CCN(Cc2ccccc2)CC1 | 0
CCN1CCCC1CNC(=O)c1c(O)c(Cl)cc(Cl)c1OC (configuration not stated) | 0
CCC(=O)Nc1nc2ccc(Cl)cc2s1 | -6
OC(CNCC(O)C1CCc2cc(F)ccc2O1)C1CCc2cc(F)ccc2O1 (configuration not stated) | -19
Cc1nnc(NC(=O)c2ccccc2C(F)(F)F)s1 | 6
CN(C)CCCNc1ncnc2c1c(-c1ccccc1)cn2-c1ccccc1 | -13
CC(COc1ccc(C(C)C)cc1)NC(=O)c1cccs1 (configuration not stated) | -1
Cc1cccc(NC(=O)CN2C(=O)CSC(C)C2=O)c1 (configuration not stated) | -5

Following part:
SMILES | HCMV UL50-53 inh
CO[C@H]1C[C@H](O[C@H]2[C@H](C)[C@@H](O[C@@H]3O[C@H](C)C[C@H](N(C)C)[C@H]3O)[C@@H](C)C[C@@]3(CO3)C(=O)[C@H](C)[C@@H](O)[C@@H](C)[C@@H](C)OC(=O)[C@@H]2C)O[C@@H](C)[C@@H]1O | -5
O=c1[nH]c(-c2ccc(Cl)cc2)nc2ccc(N3CCCC3)cc12 | 8
Cc1ccc2oc(-c3ccccc3)c(C(=O)O)c(=O)c2c1 | -13
CCN(CC)C(=O)C1C(=O)NC23CCCCC2C1c1ccccc1O3 (configuration not stated) | -4
O=C1C(=Cc2ccco2)C(=O)c2ccccc21 | -8
COc1cc(C(=O)N2CCC(N3CCCCC3)CC2)ccc1Nc1nnc(Cl)c(Nc2ccccc2S(C)(=O)=O)n1 | -15
CCCSc1nnc(CNC(=O)c2cccc(F)c2)n1-c1ccc(F)cc1 | -13
COC(=O)CCNc1ccccn1 | -2
Cc1ccc(C)c(N2C(=O)Nc3ccccc3S2(=O)=O)c1 | -8
O=C(O)COc1ccc2c(-c3ccccc3)cc(=O)oc2c1 | -74
O=C(O)COc1ccccc1/C=C1/SC(=S)N(c2cccnc2)C1=O | -17
Cc1ccc(-c2nnc(N3CCOCC3)c3ccccc23)cc1C | -1
N#CC1C[C@@H]2C[C@H]2N1C(=O)C(N)C12CC3CC(CC(O)(C3)C1)C2 (some centres not stated) | -1
O=C(O)CSC(=S)Nc1cccnc1 | 0
CCCC(=O)Nc1nnc(SCC(=O)Nc2cc(C(F)(F)F)ccc2Cl)s1 | -24
C=CC(=O)Nc1ccc(N(C)c2ccnc(Nc3ccc(N4CCN(C)CC4)cc3)n2)cc1 | 5
C[C@H](CCCO)[C@H]1CC[C@H]2[C@@H]3[C@H](O)C[C@H]4CC(=O)CC[C@]4(C)[C@H]3C[C@H](O)[C@]12C | -22&-22
CN(N=O)C(=O)N[C@H]1C(O)O[C@H](CO)[C@@H](O)[C@@H]1O (some centres not stated) | -8
CCCS(=O)(=O)Nc1ccc(F)c(C(=O)c2c[nH]c3ncc(-c4ccc(Cl)cc4)cc23)c1F | 13&5&10&0&2
CNC(=O)c1cccc(Oc2ccc(NC(=O)Nc3ccc(Cl)c(C(F)(F)F)c3)cc2)c1 | -5&-7&0&-4
Cc1ccnc(SC(C(=O)O)c2ccccc2)n1 (configuration not stated) | -12
C=CC(=O)Nc1cccc(N2C(=O)N(c3cc(OC)cc(OC)c3)Cc3cnc(NCCCCN(CC)CC)nc32)c1 | -7
COc1ccccc1N1CCN(S(=O)(=O)c2ccccc2)CC1 | -7
C/C(O)=C(\C(=O)Nc1ccccc1)C1(C(C#N)C(N)=O)CCCC1 (configuration not stated) | -12
O=C(CSc1nc2ccccc2s1)N1CCc2ccccc21 | -7

In the list so far, these contain a COOH group.
SMILES | HCMV UL50-53 inh
CC1(C(=O)O)CCC2C(Br)=CC21C (configuration not stated) | -12
COc1ccc(/C=C/C(=O)Nc2sc3c(c2C(=O)O)CCCC3)cc1 | 1
N[C@@H](CSCCB(O)O)C(=O)O | -25&-25
O=C(CC(C(=O)O)N1CCCCC1)Nc1ccccc1 (configuration not stated) | -2
COc1ccc(S(=O)(=O)N2CCc3ccccc3C2)cc1C(=O)O | -11
Cc1ccc2oc(-c3ccccc3)c(C(=O)O)c(=O)c2c1 | -13
O=C(O)COc1ccc2c(-c3ccccc3)cc(=O)oc2c1 | -74
O=C(O)COc1ccccc1/C=C1/SC(=S)N(c2cccnc2)C1=O | -17
O=C(O)CSC(=S)Nc1cccnc1 | 0
Cc1ccnc(SC(C(=O)O)c2ccccc2)n1 (configuration not stated) | -12

Next part:
SMILES | HCMV UL50-53 inh
COC(=O)c1cc(C)nc(Sc2ccccc2NC(=O)Nc2ccc(Cl)cc2)n1 | -10
CCCC(=O)NCc1nc2ccccc2[nH]1 | 13
O=C(NCc1ccccc1)c1cc2c(ccc3ccccc32)oc1=O | -14
CCOC(=O)C1CCN(C(=O)c2sc3nc(-c4ccccc4)cn3c2C)CC1 | 12
O=C(Nc1nc2ccccc2s1)c1cc(=O)c2ccccc2o1 | 5
O=C(Nc1ccc(-c2ccnc(Nc3ccc(N4CCOCC4)cc3)n2)cc1)C1CCCN1 (configuration not stated) | 10
Cc1ccc(N(C(=O)c2ccc(C(C)(C)C)cc2)C2C=CS(=O)(=O)C2)cc1 (configuration not stated) | -9
O=C1CCN(C(=O)c2ccc(Cl)cc2)c2cc3ccccc3cc21 | -24
O=C1C(c2ccccc2)N(c2ccc(Br)cc2)C(=O)N1c1ccc(Br)cc1 (configuration not stated) | -25&-25
CCC1CN(C(=O)c2cc(-c3cnn(C)c3)nc3c(C)c(C)ccc23)CCO1 (configuration not stated) | -28
Cc1nc(-c2ccc3ccccc3c2)cs1 | -34
Cc1ccc(C)n1CCN1CCN(C(=O)C(C)(C)C)CC1 | 1
O=C(O)c1cc(Br)c2ccccc2c1O | -35
CCn1c(Cc2ccccc2)nc2ccccc21 | -16
COc1ccc2c(c1)CCc1cn[nH]c1-2 | -4
CCC(NS(=O)(=O)c1ccc(C)cc1)C(=O)N1CCCCC1 (configuration not stated) | -6
COc1ccc(C(=O)NCC(c2cccnc2)N(C)C)cc1 (configuration not stated) | -4
O=C1CN(C(=O)C2CCCC2)C(c2ccc(F)cc2)c2cc(F)ccc2N1 (configuration not stated) | -7
O=C(CCSc1ccccc1)Nc1nc2ccccc2s1 | -18
CCC(OCC(O)CN1CCCC1)c1ccccc1 (configuration not stated) | 4
CCOC(=O)c1c(-c2ccccc2)csc1NC(=O)C(C)(C)C | 3
COc1ccc(C2=NS(=O)(=O)c3ccccc3N2)cc1OC | -7
O=C1NC(=Nc2ccccc2)S/C1=C\c1ccccc1 | 8
CS(=O)(=O)c1ccc(C(=O)Nc2ccccc2Cl)cc1 | -8
CN(C)C(=O)c1cn(-c2ccccc2)nc1-c1cc2ccccc2oc1=O | 0&-19

Additional entries.
SMILES | HCMV UL50-53 inh
COc1ccc(CCC(=O)Nc2nc3ccc(Cl)cc3s2)cc1OC | 24
COc1ccc2cc(C(C#N)OC(=O)CC3OC3c3ccccc3)ccc2c1 (configuration not stated) | -26&-26
CCCCCS(=O)(=O)CCCCCCCCCCn1c(-c2ccc(O)cc2)c(C)c2cc(O)ccc21 | -4
CCCCCCCC/C=C\CCCCCCCC(=O)OC[C@H](CO)OC(C)=O | -12&-12&-5
O=C(C=Cc1ccc2ccccc2n1)c1ccncc1 | -6
COc1ccccc1NC(=O)c1ccncc1 | -8
CCc1cc2c(-c3ccccc3)cc(=O)oc2cc1O | -14
COc1ccc(-c2csc3ncnc(-n4nc(C)cc4N)c23)cc1 | -12
CC(C)(C)CC(C)(C)c1ccc(OCOCCOCCO)c(Cc2cc(C(C)(C)CC(C)(C)C)cc(Cc3cc(C(C)(C)CC(C)(C)C)ccc3OCOCCOCCO)c2OCOCCOCCO)c1 | -6
c1ccc2oc(-c3ccnc4ccccc34)nc2c1 | -36
CCCCn1c(CCNC(=O)Cc2ccccc2)nc2ccccc21 | -9
CCOC(=O)c1c(NC(=O)/C=C/c2ccc(OC)cc2)sc2c1CCC2 | 0
O=C(Nc1cccc(Cl)c1)c1ccc(S(=O)(=O)N2CCCC2)cc1 | -25
O=C1O/C(=C\N2CCN(c3ccccc3)CC2)c2ccccc21 | -26
CC(C)C(=O)Nc1c2c(nn1C(C)(C)C)CS(=O)C2 (configuration not stated) | 9
O=C(CC(NC1CCCC1)C(=O)O)Nc1cccc(Cl)c1 (configuration not stated) | 0
c1ccn2c(SCc3ccc4c(c3)OCO4)nnc2c1 | -4
Nc1ccc(-c2ccc3ncc4ccc(=O)n(-c5cccc(C(F)(F)F)c5)c4c3c2)cn1 | -44&11&11&-16&-30
CCOC(=O)Cc1c(-c2ccccc2)c2cc(C)ccc2[nH]c1=O | -7
O=C(NC1C/C(=N\O)c2sccc21)C(F)(F)F (configuration not stated) | -7
CCN(CC)CCOC(=O)c1ccc(N)cc1Cl | -13
O=S(=O)(c1cccc2cccnc12)N1CCN(Cc2ccccc2)CC1 | -16
O=C(c1ncc[nH]1)c1ccco1 | -13
CC(=O)Oc1ccc(N(C(C)=O)S(=O)(=O)c2ccccc2)cc1 | -2&-15
CCOCN1C(=O)c2cccc3cccc1c23 | -68

Gathered by group: the compounds so far with a furan ring, fused or not
SMILES | HCMV UL50-53 inh
O=C1C(=Cc2ccco2)C(=O)c2ccccc21 | -8
O=C(c1ncc[nH]1)c1ccco1 | -13

Further compounds
SMILES | HCMV UL50-53 inh
Cc1ccc(CNc2ncnc3ccc(-c4ccc(CO)o4)cc23)o1 | -18
O=C(NCc1cccnc1)C1CCC(=O)N1CCc1ccccc1 (configuration not stated) | -25
CCCCCC(=O)CC[C@@H]1[C@@H](CCCCCCC(=O)O)[C@@H](O)C[C@H]1O | -8&-8
CC(/C=C1\SC(=S)N(CC(=O)Nc2cccnc2)C1=O)=C\c1ccccc1 | -15
O=c1c(-c2ccccc2F)coc2cc(O)cc(O)c12 | -13
Cc1ccc2oc3ncc(C(=O)NC(C)(C)C)cc3c(=O)c2c1 | -26
COc1ccc(/C=N/O)cc1Cl | -22
CCc1cc2c(=O)c(Oc3ccccc3F)c(C)oc2cc1OCC(=O)O | 8
O=C(NCc1ccc2c(c1)OCO2)c1cccs1 | 10
CCCc1cc2c(=O)c(-c3nc(C)cs3)coc2cc1OC(C)=O | -27
COc1cc(OC)cc(C(=O)Nc2nnc(-c3ccccc3Cl)s2)c1 | -13
CCCCCCCCCCCCC/C=C/[C@@H](O)[C@H](CO)NC(=O)CCCCCCCCCCCCCCC | 6
Cc1cc(C(C)Nc2ccccc2)c2nc(N3CCOCC3)cc(=O)n2c1 (configuration not stated) | -19&-16&-31&-37&-48
CC(C)c1nc(Cn2cnc3sc4c(c3c2=O)CCCC4)cs1 | -17
CCOc1ccc(-c2cc3ccccn3c2)cc1 | -22
C=CCn1c(CCNC(=O)Cc2ccccc2)nc2ccccc21 | -11
O=C1CN(C(=O)C2CC2)CCN1 | -9
Cc1cc(C)c(C(=O)NCCCN2CCOCC2)c(C)c1 | 7
CC/C=C\C/C=C\C/C=C\CCCCCCCCCCCC(=O)O | -7
Cn1ncc(I)c1C(=O)O | -10
CSc1nnc(NC(=O)c2cc3ccccc3oc2=O)s1 | -2
CCC(C)CC(C)CCCCCCCCC(=O)NC1CC(O)C(NCCN)NC(=O)[C@@H]2C(O)CCN2C(=O)[C@@H](C(O)CCN)NC(=O)[C@H](C(O)C(O)c2ccc(O)cc2)NC(=O)[C@@H]2CC(O)CN2C(=O)[C@H](C(C)O)NC1=O (some centres not stated) | -5
c1ccc(-c2nnc(SCc3cn4ccccc4n3)o2)cc1 | 2&-1
CCOc1ccc(C(=O)Nc2nnc(-c3ccccc3)s2)cc1 | 6
O=C(/C=C/c1ccco1)Nc1nc(-c2ccc3c(c2)OCO3)cs1 | 2
Cc1ccc(C(=O)N/C(=C\c2ccco2)C(=O)NCc2ccco2)cc1 | -37
O=C(NC1CCCC1)C1c2ccccc2C(=O)N1Cc1ccccc1 (configuration not stated) | -9
Cc1cc(C)c(S(=O)(=O)NC(CC(=O)O)c2ccccc2)c(C)c1 (configuration not stated) | -16
Cn1cc(C=CC(=O)c2cccc(F)c2)cc1C=CC(=O)NO | -43
O=S(=O)(c1cccs1)N1CCCc2ccccc21 | 1

An excerpt, so the mix of outcomes need not match the whole.
